Rango dissoc inh – inhibition of RanGTP-driven Rango-importin beta dissociation | O95149+P62826 | Biochemical FRET Rango-importin beta, RanGTP-induced dissociation | Potency, µM (highest dose often 46.1 µM), without a hit: at the top dose activity change, negative = inhibition | 340,000 compounds, 0.071% hits | AID 540253; active means falling FRET ratio curve, often poorly fitted, with flat reads before Ran was added; inconclusive means other falling curves, or compound fluorescence or quenching; inactive means flat or rising ratio curve;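 note: potency is the fitted concentration of half-maximal effect; % of control where 0% means no effect; nearly all actives have a fitted effect of over 45% in size; -100% = wells without RanGTP and RCC1; the record marks most hits as doubtful in a second field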
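Compounds preincubate 5 min with complex of recombinant Rango and importin beta in PBS with 1 mM DTT. Ran (0.6 uM) loaded with 2 mM GTP plus 0.2 uM RCC1 starts dissociation; FRET is recorded 45 min later.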
GLA inh pH 4.5 – alpha-galactosidase A (human) inhibition, pH 4.5; P06280; purified enzyme, 4-MU-alpha-Gal fluorescence, pH 4.5; activity change, negative = inhibition, % at 105 µM; 230,000 tested, under 10 active; inconclusive = small, poorly fitted or top-dose-only inhibition, or a rising curve; inactive = flat fitted curve, though single readings scatter; no compound was filed as active;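 note: 0% = full activity with enzyme and -100% = basal without enzyme; dose as in the result columns while the protocol names 77 µM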
miR-21 reporter – raises the signal of a miR-21 reporter | 340,000 tested, under 10 active | HeLa miR-21 FLuc reporter, luciferase, 48 h | Potency, µM (series often up to 38.3 µM), without a hit: top-dose reporter change, positive = more light | AID 2288; active = well fitted rising curve with a large enough effect; inconclusive = small, poorly fitted or top-dose-only effect; inactive = no such curve, though single readings can be large or run the other way;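 note: % of control where 0% means no effect; miR-21 action dims this reporter so a rising signal means less miR-21 action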
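HeLa miR-21-FLuc reporter line, endogenous miR-21; 2000 cells/well in DMEM/10% FBS; compound titration up to ~40uM final, 48 h, 37 degree Celsius; luciferase detection reagent, 15 min lysis, CCD luminescence.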
Rango-impB inh – inhibitors of Rango-importin beta complex formation. Q14974. Rango CFP/YFP FRET sensor + importin beta, 45 min. Potency, µM (highest dose often 92.2 µM), without a hit: top-dose inhibition of complex formation. 340,000 compounds, 0.031% hits. AID 540263; active = rising FRET ratio curve, often small or poorly fitted; inconclusive = mostly compound fluorescence or quenching in the first reads; inactive = flat curves in all reads;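 note: potency is the fitted concentration of half-maximal effect; 0% = DMSO wells and 100% = buffer wells lacking importin beta; nearly all actives have a fitted effect of over 15% in size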
Target sequence (Q14974 whole entry, looked up): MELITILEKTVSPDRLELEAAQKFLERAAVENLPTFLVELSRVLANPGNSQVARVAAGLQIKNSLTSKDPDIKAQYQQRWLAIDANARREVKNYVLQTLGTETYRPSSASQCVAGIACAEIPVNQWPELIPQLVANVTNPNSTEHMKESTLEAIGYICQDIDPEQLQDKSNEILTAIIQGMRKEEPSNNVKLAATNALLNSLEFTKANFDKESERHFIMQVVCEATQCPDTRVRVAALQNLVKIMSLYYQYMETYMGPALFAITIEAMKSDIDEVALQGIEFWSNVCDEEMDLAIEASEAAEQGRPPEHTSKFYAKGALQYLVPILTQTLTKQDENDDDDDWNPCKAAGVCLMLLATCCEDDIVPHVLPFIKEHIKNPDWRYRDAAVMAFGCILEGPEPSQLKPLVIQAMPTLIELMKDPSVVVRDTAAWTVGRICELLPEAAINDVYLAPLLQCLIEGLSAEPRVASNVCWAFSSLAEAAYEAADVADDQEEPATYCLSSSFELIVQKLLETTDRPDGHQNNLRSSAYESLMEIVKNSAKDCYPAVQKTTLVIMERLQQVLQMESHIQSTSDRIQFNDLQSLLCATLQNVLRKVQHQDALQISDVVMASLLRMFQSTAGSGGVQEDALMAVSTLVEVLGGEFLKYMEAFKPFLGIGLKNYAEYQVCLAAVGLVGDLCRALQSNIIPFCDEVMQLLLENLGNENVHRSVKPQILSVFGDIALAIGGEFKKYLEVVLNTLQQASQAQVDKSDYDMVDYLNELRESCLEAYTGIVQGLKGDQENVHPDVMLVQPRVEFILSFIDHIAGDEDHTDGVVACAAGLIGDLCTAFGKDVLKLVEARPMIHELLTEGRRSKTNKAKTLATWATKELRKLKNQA
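FRET biosensor (snurportin 1 IBB flanked by EYFP and cerulean), 50 nM, with compound 5 min, then 0.125 microM importin beta in PBS, 1 mM DTT, 0.02% Tween-20, 0.1% BSA. CFP/YFP ratio read after 45 min at room temperature; pre-read flags interference.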
Numbers without * were called inactive; ? = inconclusive; . = not tested or not shown. Only part of the results is shown (hit frequency here may not be typical).

| Rango dissoc inh | GLA inh pH 4.5 | Rango-impB inh | miR-21 reporter | smiles |
| --- | --- | --- | --- | --- |
| -1.1% | . | 3.5% | 14.9% | CCOC(=O)Cc1nnc(NC(=O)CCc2ccccc2)s1 |
| -4.0% | 6.2 | -0.1% | -10.4% | COc1ccc(-c2csc(NC(=S)NC(=O)c3ccco3)n2)cc1 |
| 8.0% | . | 0.0% | . | CC(=O)Nc1sc(C)c(C)c1C(=O)OCC(=O)Nc1ccccc1 |
| 13.0% | 7.2 | 0.4% | -5.9% | COc1ccc(-c2ccnc3nc(Sc4ncc(C(F)(F)F)cc4Cl)nn23)cc1 |
| -14.0% | . | -2.6% | -0.8% | Cc1ccc(S(=O)(=O)N2CCN(C(=O)C3CCCO3)CC2)cc1C (centres undefined) |
| -21.9% | . | 0.0% | . | CCOC(=O)C1CCCN(C(=O)c2ccc(S(=O)(=O)Nc3ccccc3OC)cc2)C1 (centres undefined) |
| -20.4% | -5.6 | ? | -63.2% | CCOC(=O)/C=C(\C)N1N=C(c2ccccc2)CC1c1ccccc1 (centres undefined) |
| 3.8% | 5.7 | -3.2% | 2.2% | CCOc1ncccc1C(=O)OCC(=O)Nc1cccc(C(C)=O)c1 |
| 5.2% | . | 1.3% | . | COC(=O)[C@@H](NCc1ccc(OC)c(B(O)O)c1)C(C)C |
| -6.4% | . | 2.5% | . | Cc1cc(C(=O)Nc2cc(S(C)(=O)=O)ccc2Cl)c(C)o1 |
| 31.7% | . | -0.4% | . | O=C(COC(=O)c1nc(Cl)ccc1Cl)NCc1ccc(Cl)cc1 |
| -9.2% | -8.2 | 6.7% | -9.3% | CCn1nnnc1NCc1ccc(OCc2c(F)cccc2Cl)c(OC)c1 |
| -5.8% | . | 0.1% | 0.3% | CC(=O)Nc1ccc(S(=O)(=O)N2CCN(c3nc4ccccc4n3CC(C)C)CC2)cc1 |
| 2.1% | . | 4.7% | -9.5% | COC(=O)c1ccc(S(=O)(=O)c2ccc([N+](=O)[O-])cc2)cc1 |
| 7.3% | . | 4.2% | . | CC(=O)OCC(=O)C12OC(C)(C)OC1CC1C3CC=C4CC(O)CCC4(C)C3CCC12C (centres undefined) |
| ? | 6.9 | ? | 13.7% | O=C(CCN1CCOCC1)N/N=C/c1cc(Br)cc(Br)c1O |
| -13.0% | . | 2.8% | 0.0% | Cc1cc(=O)oc2c(C)c(OCC(=O)NC3CCN(Cc4ccccc4)CC3)ccc12 |
| 1.8% | -5.1 | -0.3% | 4.5% | O=C(CN1CCN(S(=O)(=O)c2ccc(Cl)cc2)CC1)NC(=O)NC1CCCCC1 |
| -19.1% | . | -0.8% | -0.1% | Cc1ccc(C(=O)NC2CCN(CC(=O)Nc3c(C)cc(C)cc3C)CC2)cc1 |
| 6.7% | 1.2 | 3.6% | -1.3% | O=C(O)c1cc2ncc(CCO)cn2n1 |
| -5.5% | . | 0.1% | . | O=C(COC(=O)C1CC1)Nc1ccc(Cl)cc1Cl |
| 18.0% | . | -0.4% | . | CC(C)CC(=O)Nc1ccc(C(=O)COC(=O)Cc2n[nH]c(=O)c3ccccc23)cc1 |
| -23.5% | . | 1.5% | . | CCOC(=O)c1c(NC(=O)COC(=O)c2nc(Cl)ccc2Cl)sc(C(=O)NC)c1C |
| -6.4% | . | -1.6% | . | COc1ccc(OC)c(NC(=O)COC(=O)CCc2ccc(S(=O)(=O)N3CCOCC3)cc2)c1 |
| 27.9% | 5.6 | -1.7% | -5.0% | Cc1cc(C)nc(NC(=O)COc2cc(Cl)cc(Cl)c2)n1 |
| 3.6% | -2.4 | 4.2% | 1.3% | COc1ccccc1Oc1nnnn1-c1ccc(C(N)=O)cc1 |
| -0.5% | . | -2.3% | -62.7% | O=C(COc1ccccc1F)Nc1ccc2c(c1)OCCO2 |
| -8.0% | -10.0 | 1.4% | 5.2% | C/C(=N/NC(=O)c1ccc(C)nc1)c1ccc2c(c1)CCCC2 |
| -6.6% | 11.6 | -0.5% | -5.6% | CCC(=O)NC(O)C(=O)c1ccc(C)cc1 (centres undefined) |
| 0.1% | 0.1 | -1.2% | 2.3% | CCC(OC(=O)c1nsc(Cl)c1Cl)C(=O)NCc1ccco1 (centres undefined) |

Single entries from the list:
`COc1ccc(OC)c(NC(=O)COC(=O)CCc2ccc(S(=O)(=O)N3CCOCC3)cc2)c1` @ Rango dissoc inh: -6.4%
`COc1ccccc1Oc1nnnn1-c1ccc(C(N)=O)cc1` @ Rango-impB inh: 4.2%

(list continues)
| Rango dissoc inh | GLA inh pH 4.5 | Rango-impB inh | miR-21 reporter | smiles |
| --- | --- | --- | --- | --- |
| ? | -1.0 | -1.1% | 2.3% | Cc1nonc1OCCNCCNc1ccccc1[N+](=O)[O-] |
| -10.5% | -2.0 | -1.0% | -24.2% | CCCn1c(NCc2c[nH]c3ccccc23)nc2ccccc21 |
| -2.7% | -3.9 | -3.4% | -0.6% | Cc1ccc(C2=CSC3=NCCN23)c(C)c1 |
| 1.6% | 8.7 | 0.5% | -9.2% | O=C(CNC(=O)c1ccccc1)OCc1nnc(-c2ccc(Cl)cc2)o1 |
| 1.5% | . | 1.7% | -1.3% | COc1ccc(CCN2CC(C(=O)NCc3nc4ccccc4n3C)CCC2=O)cc1 (centres undefined) |
| -7.6% | -2.8 | -0.8% | -3.6% | O=C1CC(c2ccccc2)CC(O)=C1C=NCC1CCCO1 (centres undefined) |
| 0.0% | . | 0.2% | . | CCOC(=O)[C@H]1[C@H]2COc3ccc(C)cc3[C@@H]2N2C(=O)c3ccccc3NC(=O)[C@@]12C |
| 3.9% | . | 0.8% | -6.4% | Cc1ccc(C(=O)NC(C)c2ccncc2)o1 (centres undefined) |
| 5.7% | . | -0.3% | -7.2% | CSc1ccc(CNCc2ccco2)cc1 |
| 2.4% | -3.0 | 7.0% | 0.3% | O=C(O)c1cccc(S(=O)(=O)NCC2CCCO2)c1 (centres undefined) |
| -7.3% | . | 0.6% | . | COc1ccc(C(=O)COC(=O)c2c(C)noc2C)cc1Cl |
| -5.4% | 0.1 | 1.2% | -16.1% | Cc1nnsc1C(=O)Nc1ccc(Cl)cc1Cl |
| 27.3% | . | -2.0% | -4.6% | O=[N+]([O-])c1cccnc1Sc1ccc(Cl)cc1 |
| -25.7% | 9.4 | ? | 0.6% | O=C(O)COc1ccccc1/C=C1\SC(=S)N(/N=C/c2ccccc2O)C1=O |
| 5.7% | 1.6 | -1.7% | -4.8% | COc1cc(NC(=O)Cn2c(=O)n(-c3cccc(C)c3)c(=O)c3c(C)c(C)sc32)cc(OC)c1 |
| -1.8% | -6.9 | -0.5% | -0.5% | CCCC(c1nnnn1C(C)(C)C)N1CCN(Cc2ccccc2)CC1 (centres undefined) |
| -6.8% | . | 0.0% | -5.0% | Fc1ccccc1NC(=S)NC1CCCC1 |
| -13.7% | . | 2.2% | 2.5% | CCCCN(C(=O)CCC(=O)Nc1cc(C)on1)C(C(=O)NC1CCCC1)c1ccc(OCC)cc1 (centres undefined) |
| -11.6% | 5.9 | 0.1% | -8.9% | CC(C)NC(=O)NC(=O)COC(=O)CCOc1ccccc1 |
| -9.9% | 2.7 | 4.7% | 3.2% | O=C(CSc1nnnn1-c1ccc(O)cc1)c1cc2ccccc2o1 |
| 1.2% | 12.5 | -1.4% | 5.5% | CC(C)CC1CCCCC1OC(=O)C[N+]1(C)CCCCC1 (centres undefined) |
| -2.3% | -13.1 | 0.9% | 9.3% | O=P(Cc1cc(Br)cc(Br)c1OCCO)(c1ccccc1)c1ccccc1 |
| . | 4.9 | . | 11.4% | Cc1nc2cc(-c3ccccc3)nn2c(C)c1CCC(=O)N1CCN(c2ccccn2)CC1 |
| 5.0% | -6.3 | 1.4% | -28.0% | Cc1nc2ccccc2c(=O)n1/N=C/c1cccs1 |
| 6.2% | -3.1 | -3.7% | -21.1% | O=C(NCCOc1ccccc1)c1n[nH]c(=O)c2ccccc12 |
| 5.7% | . | -1.3% | . | CC(=O)N1CCN(C(=O)c2ccc(-c3ccccc3Cl)o2)CC1 |
| 18.6% | . | 5.7% | -33.0% | O=C(NCCc1ccc(Cl)cc1)c1ccc2ccccc2n1 |
| 0.3% | -2.4 | -3.1% | 3.2% | COc1ccc(NC(=O)c2c(C(F)(F)F)nn(C)c2SCc2ccccc2Cl)cc1 |
| -8.4% | . | 0.3% | . | COCCN(CCOC)C(=O)CSc1ccc(S(=O)(=O)N2CCN(C)CC2)cn1 |
| 7.5% | . | -1.0% | 1.5% | COc1cccc(CN(C)C(c2ccccc2)c2ccccc2)c1OC |

Record cards, from the list above:
`COc1cc(NC(=O)Cn2c(=O)n(-c3cccc(C)c3)c(=O)c3c(C)c(C)sc32)cc(OC)c1` as listed: Rango dissoc inh = 5.7%; GLA inh pH 4.5 = 1.6; Rango-impB inh = -1.7%; miR-21 reporter = -4.8%
`O=[N+]([O-])c1cccnc1Sc1ccc(Cl)cc1` as listed: Rango dissoc inh = 27.3%; GLA inh pH 4.5 = .; Rango-impB inh = -2.0%; miR-21 reporter = -4.6%

Rewritten with values under each structure: part of the list above
Results follow in this order: Rango dissoc inh, GLA inh pH 4.5, Rango-impB inh, miR-21 reporter
- Cc1nonc1OCCNCCNc1ccccc1[N+](=O)[O-]
    ?, -1.0, -1.1%, 2.3%
- CC(C)CC1CCCCC1OC(=O)C[N+]1(C)CCCCC1 (centres undefined)
    1.2%, 12.5, -1.4%, 5.5%

Continuation.
| Rango dissoc inh | GLA inh pH 4.5 | Rango-impB inh | miR-21 reporter | smiles |
| --- | --- | --- | --- | --- |
| -0.4% | -5.0 | -0.2% | 0.8% | c1ccc(-c2nnc(CSc3nnc(-c4ccncc4)n3Cc3ccco3)o2)cc1 |
| 9.6% | -6.7 | 1.3% | 2.6% | Cn1c(CNC(=O)c2ccccc2F)nnc1SCC(=O)NCc1ccccc1 |
| 12.8% | . | -1.1% | -1.0% | O=C(Cn1ncc2c3ccccc3n(Cc3cccc(Cl)c3)c2c1=O)NCc1ccccn1 |
| -10.6% | . | 1.7% | 1.3% | COc1ccc2cc(CCNC(=O)c3ccc(S(=O)(=O)N4CCOCC4)cc3)c(=O)[nH]c2c1 |
| -10.0% | . | 0.6% | 17.3% | Cc1cccc(N2CCN(C(=O)c3c(Cl)cnn3C)CC2)c1C |
| 1.0% | . | 0.8% | -4.8% | COc1ccc(C(=O)NCCCNC(=O)c2ccco2)cc1OC |
| 14.3% | . | 0.2% | 4.2% | O=C(CCC(=O)N1CCSc2ccccc21)NCc1cccc(Br)c1 |
| -14.7% | 14.0 | 0.3% | 20.9% | O=C(CSc1nnnn1C1CC2CCC1C2)Nc1ccnc2ccccc12 (centres undefined) |
| 20.4% | . | -0.9% | -3.0% | COc1ccc(N(C)C(=O)C2CCCN2S(=O)(=O)c2cccc3nsnc23)c(OC)c1 (centres undefined) |
| -8.7% | -17.7 | 0.5% | -23.0% | O=C(N=Nc1c(O)n(Cc2ccccc2)c2ccccc12)c1cc2ccccc2cc1O |
| -3.8% | 4.7 | 1.4% | -3.9% | CCN(CC)CCN(Cc1cc2cc(C)ccc2[nH]c1=O)C(=S)NCc1ccco1 |

Part of the list above, reformatted:
SMILES | Rango dissoc inh | GLA inh pH 4.5 | Rango-impB inh | miR-21 reporter
c1ccc(-c2nnc(CSc3nnc(-c4ccncc4)n3Cc3ccco3)o2)cc1 | -0.4% | -5.0 | -0.2% | 0.8%
CCN(CC)CCN(Cc1cc2cc(C)ccc2[nH]c1=O)C(=S)NCc1ccco1 | -3.8% | 4.7 | 1.4% | -3.9%
COc1ccc(C(=O)NCCCNC(=O)c2ccco2)cc1OC | 1.0% | . | 0.8% | -4.8%

Source: PubChem BioAssay (National Center for Advancing Translational Sciences (NCATS))
